SRC2 inh: inhibition of GAL4-SRC2 driven luciferase reporter, primary screen, SRC2 inhibitor project, cell-based, luminescence. HEK293 GAL4-SRC2 luciferase reporter. 370,000 compounds, 0.17% hits. Nuclear receptor coactivator 2 (Homo sapiens), Q15596. AID 651957, 2012. inhibition, % at 9 µM;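 active = inhibition above the mean inhibition of all tested compounds plus 3 SD, set per campaign, cut at about 52% in these data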;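 note: 0% = DMSO treated cells and 100% = cells given Gossypol at 36 µM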
TRAIL sens C8: viability loss with TRAIL in NB7+C8 cells, primary screen, TRAIL sensitizer project, cell-based, ATPlite luminescence; 360,000 compounds, 1% hits; inhibition (viability loss, TRAIL sensitization), % at 10 µM;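 active = compounds causing at least 50% loss of cell viability in the single-dose screen, relative to plate controls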
SRC1 inh: SRC1 coactivator transcriptional activity inhibitors, primary screen, cell-based, luminescence | HEK293 GAL4-SRC1 luciferase reporter | inhibition, % at 3.6 µM | AID 588354, 2011 | Nuclear receptor coactivator 1 (Homo sapiens), Q15788 | 360,000 compounds, 0.12% hits;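 active = inhibition above the campaign mean plus 3 SD, with each screening campaign given its own cutoff, cut at about 60% in these data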;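 note: 0% = DMSO treated cells and 100% = gossypol at 36 µM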
SRC3 inh: SRC3 coactivator transcriptional activity inhibitors, primary screen, cell-based, luminescence; Nuclear receptor coactivator 3 (Homo sapiens), Q9Y6Q9; HEK293 GAL4-SRC3 luciferase reporter; inhibition, % at 3.6 µM; 360,000 compounds, 0.17% hits;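 active = inhibition above a per-campaign cutoff, the mean of all compounds plus 3 SD, cut at about 60% in these data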;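 note: 0% = DMSO-treated cells and 100% = gossypol-treated cells at 36 µM; higher means less SRC3-driven luciferase light from the GAL4 reporter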
NR2F2 inh: NR2F2 transcriptional activity inhibitors, primary screen, cell-based, luciferase reporter, HEK293T, luminescence; HEK293T NGFI-A luciferase reporter; inhibition, % at 8.6 µM; COUP transcription factor 2 (Homo sapiens), P24468; 370,000 compounds, 0.7% hits;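 active = inhibition above a per-plate cutoff, mean inhibition of test wells between control levels plus 3 SD, cut at about 38% in these data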;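 note: cells cotransfected with COUP-TFII expression vector driving the NGFI-A reporter; 0% = median of COUP-TF2 test wells and 100% = reporter-only cells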
LRH-1 inv ag: LRH-1 (NR5A2) inverse agonists, primary screen, cell-based, luminescence, HEK293T, StAR-luciferase reporter; Nuclear receptor subfamily 5 group A member 2 (Homo sapiens), O00482; inhibition, % at 3.6 µM; AID 602396, 2012; LRH-1 transfected, 24 h; 360,000 compounds, 0.13% hits;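 active = inhibition above the mean inhibition of all tested compounds plus 3 SD, cut at about 73% in these data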;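 note: 0% = DMSO wells and 100% = reporter-only cells lacking LRH-1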
The depositor's hits bear a star. The list is partial; rates above refer to the full screens.

item	SMILES	SRC3 inh	SRC1 inh	TRAIL sens C8
1	COc1ccc(C(=O)N2CCCC2=O)cc1	-2.9	1.6	-2.2
2	CC(CCc1ccccc1)NC(C)C(O)c1ccc(O)cc1 (stereo not drawn)	-18.9	-123.9	-8.7
3	O=c1cccc2n1CC1CC2CN(Cc2c(F)cccc2Cl)C1 (stereo not drawn)	0.8	4.0	-21.9
4	C[N+](C)(C)CC(=O)O	-16.1	-16.1	-4.2
5	Oc1ccc(Cl)cc1Cc1ccccc1	0.4	-16.2	-5.5
6	CC(=O)c1c(C)n(C2CCCCC2)c2ccc(O)cc12	69.4*	73.2*	-5.8
7	COc1ccc(CCNCc2cccn2C)cc1	-6.2	-0.1	0.1
8	NNC(N)=O	-8.4	1.5	0.3

item	NR2F2 inh	SRC2 inh	LRH-1 inv ag
1	6.1	2.7	7.4
2	-51.8	-54.0	0.4
3	9.2	-14.1	-21.9
4	-6.8	-0.7	-3.9
5	-1.7	-2.6	-10.0
6	51.4*	25.1	38.3
7	-3.1	5.1	-9.0
8	-2.2	-4.1	-9.1

(further entries)
item	SMILES	SRC3 inh	SRC1 inh	TRAIL sens C8
9	Fc1ccc(C(OCCN2CCCC2)c2ccc(F)cc2)cc1	25.3	23.1	-2.7
10	O=c1[nH]c2ccccc2n1CCCN1CCC(n2c(=O)[nH]c3cc(Cl)ccc32)CC1	-10.8	0.9	7.0
11	O=C(N/N=C/C1C(=O)NC(=S)N(c2ccccc2)C1=O)c1cc(Br)c(O)c(Br)c1 (stereo not drawn)	-8.5	-5.2	-3.5
12	CC(C)[N+]12CCC(CC1)C(C(O)(c1ccccc1)c1ccccc1)C2 (stereo not drawn)	14.1	3.2	3.3
13	C[N+]1(C)[C@@H]2CC[C@H]1CC(OC(=O)[C@@H](CO)c1ccccc1)C2 (stereo partly drawn)	7.3	17.3	1.3
14	CC(C)(C)C(O)C(Oc1ccc(Cl)cc1)n1cncn1 (stereo not drawn)	8.7	-0.5	-1.5

item	NR2F2 inh	SRC2 inh	LRH-1 inv ag
9	-2.6	-6.2	15.0
10	4.1	16.1	-2.7
11	15.7	-12.0	-7.5
12	7.3	-27.9	23.7
13	0.8	5.9	-12.6
14	15.4	-15.9	-22.2

Some of the entries so far, in markdown:
| cpd | Structure | SRC3 inh | SRC1 inh | TRAIL sens C8 | NR2F2 inh | SRC2 inh | LRH-1 inv ag |
| --- | --- | --- | --- | --- | --- | --- | --- |
| 4 | C[N+](C)(C)CC(=O)O | -16.1 | -16.1 | -4.2 | -6.8 | -0.7 | -3.9 |
| 5 | Oc1ccc(Cl)cc1Cc1ccccc1 | 0.4 | -16.2 | -5.5 | -1.7 | -2.6 | -10.0 |
| 6 | CC(=O)c1c(C)n(C2CCCCC2)c2ccc(O)cc12 | 69.4* | 73.2* | -5.8 | 51.4* | 25.1 | 38.3 |
| 7 | COc1ccc(CCNCc2cccn2C)cc1 | -6.2 | -0.1 | 0.1 | -3.1 | 5.1 | -9.0 |
| 8 | NNC(N)=O | -8.4 | 1.5 | 0.3 | -2.2 | -4.1 | -9.1 |
| 9 | Fc1ccc(C(OCCN2CCCC2)c2ccc(F)cc2)cc1 | 25.3 | 23.1 | -2.7 | -2.6 | -6.2 | 15.0 |
| 10 | O=c1[nH]c2ccccc2n1CCCN1CCC(n2c(=O)[nH]c3cc(Cl)ccc32)CC1 | -10.8 | 0.9 | 7.0 | 4.1 | 16.1 | -2.7 |
| 11 | O=C(N/N=C/C1C(=O)NC(=S)N(c2ccccc2)C1=O)c1cc(Br)c(O)c(Br)c1 (stereo not drawn) | -8.5 | -5.2 | -3.5 | 15.7 | -12.0 | -7.5 |

High-throughput results deposited in PubChem by several laboratories.
